# MLL AF4-AF9 inh: inhibitors of AF4 peptide binding to AF9, primary screen, biochemical, AlphaScreen, biotin-AF4 peptide, FLAG-AF9, single point. actives 0.47% (n = 350,000). AID 651704, 2012. Protein AF-9 (Homo sapiens), P42568. inhibition, % at 10 µM;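 active = every replicate reaching a set inhibition limit, whatever the replicate mean, cut at about 25% in these data; inconclusive = mean inhibition reaches that limit but some replicates miss it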;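 note: 0% = plate neutral control median and 100% = total signal loss; the record names both 10 and 1 µM as test concentration; the first replicate is given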
# Target sequence (P42568 whole entry, looked up): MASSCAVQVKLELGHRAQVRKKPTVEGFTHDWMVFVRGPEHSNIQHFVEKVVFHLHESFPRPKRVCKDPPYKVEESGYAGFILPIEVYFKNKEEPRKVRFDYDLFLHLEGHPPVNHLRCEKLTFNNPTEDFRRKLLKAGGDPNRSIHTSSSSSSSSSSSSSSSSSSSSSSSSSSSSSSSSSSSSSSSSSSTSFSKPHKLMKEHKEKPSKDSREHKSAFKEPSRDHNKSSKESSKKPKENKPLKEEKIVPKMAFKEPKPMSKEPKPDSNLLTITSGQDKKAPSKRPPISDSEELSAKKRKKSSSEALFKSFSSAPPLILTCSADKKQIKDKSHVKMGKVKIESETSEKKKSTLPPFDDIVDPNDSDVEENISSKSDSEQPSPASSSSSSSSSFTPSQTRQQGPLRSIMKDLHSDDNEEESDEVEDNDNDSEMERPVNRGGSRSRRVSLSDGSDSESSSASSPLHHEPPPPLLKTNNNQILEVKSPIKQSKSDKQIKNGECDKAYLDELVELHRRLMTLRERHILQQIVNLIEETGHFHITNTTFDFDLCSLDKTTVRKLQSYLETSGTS
# Calb FLC: C. albicans growth inhibition with fluconazole, primary screen, CaCi-2 strain, Alamar Blue fluorescence | C. albicans CaCi-2 (fluconazole-resistant clinical isolate) + fluconazole, 48 h | growth inhibition, % (test concentration not listed) | actives 0.57% (n = 300,000);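 active = most replicates above 75%; inconclusive = exactly half above 75%; inactive = most below 75%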;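 note: all wells also contain fluconazole at 8 µg/ml as a sub-toxic cotreatment; 0% = median of DMSO wells and 100% = median of geldanamycin control wells; wells of about 8 µL received 7.5 nL stock; the first replicate is given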
# Beta apoptosis: inhibitors of cytokine-induced beta cell apoptosis, primary screen, luminescence. protection from apoptosis, % (concentration not given with the values). INS-1E cytokine-induced death, ATP luminescence, 48 h; percent of positive-control rescue, neutral wells zero. actives 0.8% (n = 300,000);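 active = all replicates at 75% or more, or half of them and the mean; inconclusive = half reach 75% but not the mean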;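 note: 0% = cytokine-treated negative control wells and 100% = positive control rescue; higher means more ATP so stronger rescue from cytokine killing; wells of about 40 µL received 100 nL stock; the first replicate is given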
# FGF22 binding: binders of human FGF22 protein, primary screen, FGF22 synaptogenesis inhibitor project, biophysical, thermal shift, single point; Fibroblast growth factor 22 (Homo sapiens), Q9HCT0; recombinant FGF22 thermal shift, SYPRO orange fluorescence; percent of sucrose octasulfate shift, DMSO zero; calls only at 9.99 µM; actives 1.5% (n = 340,000);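 active = melting point raised past a set limit in the mean and every replicate; inconclusive = no clear call; three in four hits are not shown here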
# Target sequence (Q9HCT0 whole entry, looked up): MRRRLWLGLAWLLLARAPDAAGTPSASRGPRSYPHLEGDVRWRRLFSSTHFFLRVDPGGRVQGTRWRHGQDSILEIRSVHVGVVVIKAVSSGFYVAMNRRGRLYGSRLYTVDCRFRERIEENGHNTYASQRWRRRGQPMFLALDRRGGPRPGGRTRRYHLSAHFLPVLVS
# T cruzi repl: inhibitors of intracellular T. cruzi growth, primary screen, luminescence, NIH3T3 host cells | inhibition, % (no concentration beside the values) | actives 1.4% (n = 300,000) | T. cruzi beta-gal in NIH3T3, 90 h;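 active = mean inhibition across valid replicates above about 55%, limit read from the data; inconclusive = mean below that limit but half or more replicates reach it; inactive = mean below it, under half of replicates reach it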;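 note: signal also drops with host cell toxicity which is not excluded here; 0% = plate median of DMSO wells and 100% = zero luminescence signal; higher percent means less beta-gal luminescence so fewer parasites; stock transfer was 50 nL into about 50 µL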
# ALR inh: inhibitors of human ALR sulfhydryl oxidase, primary screen, biochemical, H2O2 detection, HRP-luminol luminescence, single point; FAD-linked sulfhydryl oxidase ALR (Homo sapiens), P55789; purified ALR, DTT oxidation; inhibition, % (test concentration not listed); actives 3.8% (n = 290,000); AID 485317, 2010;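 active = mean and each replicate at 75% or more; inconclusive = only one of the two met; inactive = neither met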;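 note: stock transfer was 7.5 nL into about 7.5 µL; 0% = neutral wells and 100% = wells with inactivated enzyme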
# Target sequence (P55789 whole entry, looked up): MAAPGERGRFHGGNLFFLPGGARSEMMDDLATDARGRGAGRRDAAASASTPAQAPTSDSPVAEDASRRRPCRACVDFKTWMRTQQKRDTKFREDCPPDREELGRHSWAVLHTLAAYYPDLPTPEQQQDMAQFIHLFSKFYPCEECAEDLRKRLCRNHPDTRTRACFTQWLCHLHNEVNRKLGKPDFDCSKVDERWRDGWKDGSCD
# RanGTP-Imp inh: inhibitors of RanGTP-importin-beta interaction, primary screen, biochemical, FRET, CFP-Ran, YFP-importin-beta, homogeneous | Ran GTPase (GTP-bound) - importin-beta complex | inhibition, % (no concentration beside the values) | AID 2216, 2009 | actives 1.1% (n = 300,000) | cell-free CFP-Ran/YFP-importin-beta FRET ratio;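 active = most replicates above 15%; inconclusive = exactly half above 15%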;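 note: 0% = DMSO wells and 100% = Ran loaded with GDP instead of GTP; wells of about 40 µL received 100 nL stock; the first replicate is given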
# rRNA inh HTS: reduced GFP signal of wild-type E. coli, primary screen, bacterial rRNA inhibitor project, GFP/RFP fluorescence, OD600, single point; GFP signal change (wild-type ribosome), % (no concentration beside the values); actives 1.6% (n = 350,000); E. coli WT GFP vs humanized-ribosome RFP mutants, 24 h; stronger effect = lower value; DMSO median 0, no signal -100;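 active = significant combined selectivity score with lowered wild-type GFP, culture density cut under 30%, mutant RFP and density less affected; inactive = any of these conditions unmet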; note: one replicate is shown; some compounds called inactive have numbers as strong as hits
# rRNA inh HTS OD600: recorded beside rRNA inh HTS, whose call it bears; OD600 change, %; measured here: OD600 growth;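 optical density of the mix in the first replicate; 0 = DMSO median and -100 = no signal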
# rRNA inh HTS RFP: recorded beside rRNA inh HTS, whose call it bears; RFP signal change, %; measured here: RFP humanized mutant strains;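 first replicate; 0 = DMSO median and -100 = no signal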
# Active calls of the source: *; i = inactive; ? = inconclusive; nt = no result given.
SMILES,MLL AF4-AF9 inh,Calb FLC,Beta apoptosis,FGF22 binding,T cruzi repl,ALR inh,RanGTP-Imp inh,rRNA inh HTS,rRNA inh HTS OD600,rRNA inh HTS RFP
CCC(c1c(C)n(C)n(-c2ccccc2)c1=O)c1c(C)n(C)n(-c2ccccc2)c1=O,nt,-3,2,nt,-7,4,3.5,nt,nt,nt
O=C(c1cc2nc(-c3ccco3)cc(C(F)(F)F)n2n1)N1CCCCCC1,nt,7,0,nt,6,3,0.7,3,10,4.1
CC(C)(C)CC(=O)NC(=S)N1CCCCCC1,nt,-6,-3,nt,-1,10,0.9,nt,nt,nt
CC(C)(O)C#Cc1ccc(C(=O)NCc2cccs2)s1,nt,-5,5,nt,-7,2,-1.4,nt,nt,nt
COc1ccc(NC(=O)CSc2nnc(C)n2Cc2ccccc2)cc1,nt,-6,-1,nt,-14,-1,-12,nt,nt,nt
Nc1cc2c(cc1[N+](=O)[O-])OCCOCCOCCO2,5.1,7,-4,i,1,nt,6.9,-2,5,-0.3
CN(CC(=O)NCCCN1CCOCC1)S(=O)(=O)c1cc(Cl)ccc1Cl,-2.1,22,-1,i,-7,-5,2.7,21,9,4.6
OCc1ccnc(Cl)c1,-3.5,-3,-12,i,-11,-3,7.3,-1,12,-4.0
Clc1ccc(OCCn2c(-c3ccco3)nc3ccccc32)cc1,nt,5,-3,nt,-28,3,-4.8,nt,nt,nt
O=C(CCSc1ccccc1)NC1CCCCCC1,-1.2,-2,4,i,-5,-9,-3.8,-19,-22,-0.4
COC(=O)C1CCN(C(=O)/C(C)=C\c2ccccc2)CC1,2.2,1,2,i,-6,nt,2.8,1,6,1.9
O=C(COc1ccc(Cl)cc1[N+](=O)[O-])NC1CCCCC1,7.4,-7,4,i,6,-12,-1.1,1,11,6.9
COc1ccc(C2Nc3ccccc3C(=O)N2NS(C)(=O)=O)c(OC)c1 (centres undefined),-2.8,-1,-1,i,-20,-2,3.5,5,1,2.8
O=C(CSc1ncccn1)NCc1cccs1,-5.1,-24,-1,i,6,-6,-14,2,6,-0.9
COCCCn1c(=O)c2ccccc2n(CC(=O)NC2CCCCC2)c1=O,1.3,-4,-3,i,6,-5,-1.6,2,3,0.4
O=C(NCc1ccccc1)c1cc[n+]([O-])cc1,-1.1,10,-8,i,-4,nt,-2.9,9,10,-0.8
COCCNc1ncnc2c1cnn2Cc1ccc(Cl)cc1,nt,-1,-9,nt,-13,-7,3.7,nt,nt,nt
COc1cccc(CN2CCNC(=O)C2CC(=O)NC2CCCCCCC2)c1 (centres undefined),7.2,-4,3,i,11,-4,2.7,5,0,-0.1
OCC[C@H]1C[C@H](O)[C@@H](O)[C@]2(CCc3ccccc3O2)O1,nt,nt,0,i,nt,-8,nt,8,1,1.9
CC(=O)/C(=C\N(C)C)Sc1ccc(C)cc1,-4.2,0,-8,i,9,-2,-1.1,-2,2,-2.7
CC1CCCCN1S(=O)(=O)c1ccc(S(=O)(=O)N2CCN(c3ccccc3)CC2)cc1 (centres undefined),nt,-9,-1,nt,5,-10,-2.0,nt,nt,nt
O=C(Cn1ccc(C(F)(F)F)n1)N/N=C/c1cccs1,nt,12,-12,nt,-23,-12,5.7,nt,nt,nt
O=C(Nc1ccc(F)cc1)c1ccccc1NC(=O)C1CC=CCC1C(=O)O (centres undefined),-1.4,-3,1,i,nt,-8,nt,-4,-23,0.3
Cc1cc(NC(=O)c2cccnc2)ccc1NC(=O)c1ccco1,nt,4,-3,nt,-2,-2,0.3,16,11,-0.8
COc1cc(-c2nnc(SCc3c(F)cccc3Cl)o2)cc(OC)c1OC,nt,17,0,nt,3,-4,0.6,nt,nt,nt
Cc1ccc(C)c(OCCC(=O)NNC(=O)c2ccccc2)c1,-1.2,nt,-3,i,-15,-2,-2.7,8,-1,-0.5
C=CCNC(=S)Nc1ccc(C(N)=O)cc1,-9.2,-5,-2,nt,-9,-10,3.5,1,0,4.8
COc1ccc([N+](=O)[O-])cc1NC(=O)C1CCCO1 (centres undefined),nt,-1,-5,nt,-8,-3,-2.6,nt,nt,nt
O=C1C(=O)N(CCN2CCOCC2)C(c2ccc(F)cc2)/C1=C(/O)c1ccc(S(=O)(=O)N2CCOCC2)cc1 (centres undefined),1.6,-3,-2,i,9,5,-0.6,5,12,0.6
Cc1nn(-c2ccc(N3CCOCC3)nn2)c(C)c1CCC(=O)NCc1ccc(F)cc1,-2.4,5,-1,i,-15,-16,5.1,4,14,-2.8
Cc1ccc2ccccc2c1COC(=O)c1nonc1N,0.1,-4,3,i,-9,-1,-3.6,-23*,4.7*,2.5*
CS(=O)(=O)c1nc(S(=O)(=O)c2ccc(Cl)cc2)c(N2CCC(C(N)=O)CC2)s1,-0.4,12,-1,i,-23,-2,1.8,7,9,0.9
CC1(C)CC2CC(C)(CN2C(=O)COc2cccc3ccccc23)C1 (centres undefined),nt,7,6,nt,33,-4,1.2,nt,nt,nt
Cn1cccc1C(C(=O)NC1CCCCC1)N(C(=O)Cc1cccs1)c1ccc2c(c1)OCO2 (centres undefined),nt,-28,3,nt,21,-3,-3.3,nt,nt,nt
CC(C(=O)Nc1ccccc1F)N1CCN(C)CC1 (centres undefined),nt,-8,-3,nt,4,nt,1.2,nt,nt,nt
CCNc1nc(SCCOc2ccc(Cl)cc2Cl)nc(N(C)C)n1,0.1,-2,nt,i,31,nt,4.6,12,10,-1.8
Oc1ccc(N=C/C=C/c2cccc(Br)c2)cc1-c1nc2ccccc2s1,nt,2,-5,nt,-13,-15,38*,nt,nt,nt
C=CCC1NS(=O)(=O)OCC1NC(=O)OCC(Cl)(Cl)Cl (centres undefined),1.2,0,-6,i,-9,nt,3.8,6,10,-8.0
COc1cc2c(cc1C1NC(=S)NC(C)=C1C(=O)N(C)C)CCCC2 (centres undefined),-3.6,?,-4,i,-18,0,-0.7,-7,-3,-1.7
CCc1ccc(OCC(=O)Nc2ccc3c(c2)COC3=O)cc1,nt,-4,-4,nt,0,-12,1.0,nt,nt,nt
Cc1ccc(CNC(=O)CSc2nc(=O)n3cccc(C)c3n2)cc1,0.1,0,nt,i,-13,-4,-1.2,2,12,1.9
Cc1ccc(-n2c3c(cc(C(=O)NCc4ccco4)c2=O)C(=O)CC(C)(C)C3)cc1,nt,2,4,nt,23,-12,-0.8,nt,nt,nt
CCOC(=O)N1CCN(C(=O)C2COc3ccccc3O2)CC1 (centres undefined),nt,-6,-5,nt,-2,29,-0.4,nt,nt,nt
O=C(CCCN1C(=O)/C(=C/c2ccccc2)SC1=S)Nc1ccc(O)cc1,3.5,20,-6,i,21,11,-2.6,nt,nt,nt
CCOc1ccccc1-n1c(SCC(=O)NC)nnc1-c1ccco1,nt,-17,-4,nt,-3,-11,-2.2,1,2,-1.2
Cc1cc(C)cc(N(CCC#N)C(=O)CSc2n[nH]c(N)n2)c1,-1.0,0,0,i,4,nt,0.7,11,6,1.0
O=C(NC1CCCCCC1)c1ccc(CN2CCOCC2)cc1,nt,-7,1,nt,-3,60,-2.8,nt,nt,nt
CCOc1ccccc1OCCOCCN1CCN(Cc2ccccc2)CC1,0.8,-10,0,i,61*,nt,5.4,nt,nt,nt
COc1ccc(-c2csc3ncnc(N4CCN(S(=O)(=O)c5ccc(C(C)=O)cc5)CC4)c23)cc1,1.5,16,nt,nt,32,-3,-6.3,1,-24,3.8
COc1ccc(CNC(=O)C(=O)NCC(c2ccco2)N2CCOCC2)cc1 (centres undefined),nt,2,-7,nt,-9,-9,0.2,nt,nt,nt
CCc1cc(=O)oc2cc(C)cc(OCC(=O)NCc3ccncc3)c12,-0.3,4,0,i,-14,-4,19,0,-5,0.0
Cc1[nH]n(-c2ccc(Cl)c(Cl)c2)c(=O)c1CCO,-0.6,-24,nt,i,-24,-9,-7.6,-12,-16,2.2
CCOC(=O)N/N=C(\C)c1ccc(C)c([N+](=O)[O-])c1,nt,-8,-5,nt,10,-4,?,nt,nt,nt
CCCCCCC1CCC(C(=O)Nn2c(C)nc3ccccc3c2=O)CC1 (centres undefined),nt,-14,5,nt,34,nt,2.6,nt,nt,nt
O=C(O)c1ccc2c(=O)n3c(nc2c1)/C(=C/c1ccc(C(F)(F)F)cc1)CC3,-5.6,4,-4,i,-16,nt,0.4,-21,-34,-1.3
O=C(O)COc1ccc2c3c(c(=O)oc2c1)CCC3,nt,24,-5,nt,11,-6,3.9,nt,nt,nt
COc1ccc(NC(=S)c2ccc3ccccc3n2)cc1,nt,34,0,nt,-17,-15,-0.2,nt,nt,nt
CCn1c(C)c(C)c2cc(C(=O)NCCc3ccco3)ccc21,1.9,-1,2,i,1,8,-2.0,-11,-26,16
CC(C)(C)NC(=O)C(=O)NNC(=O)COc1ccc(Br)cc1,nt,6,0,nt,-22,-15,-2.0,nt,nt,nt
CC(NC(=O)c1cc2cc(Cl)ccc2oc1=N)c1ccccc1 (centres undefined),-3.0,-7,-7,i,-3,-15,-2.0,10,10,2.6

# Going on with the list:
SMILES,MLL AF4-AF9 inh,Calb FLC,Beta apoptosis,FGF22 binding,T cruzi repl,ALR inh,RanGTP-Imp inh,rRNA inh HTS,rRNA inh HTS OD600,rRNA inh HTS RFP
Cc1ccc(CC(=O)N2CCN(S(=O)(=O)c3ccccc3)CC2)cc1C,1.1,1,nt,nt,10,-15,-0.5,-3,-8,1.2
CC(C)(C)c1cc(O)c(C(C)(C)C)cc1O,nt,-1,-3,nt,10,1,3.8,nt,nt,nt
CN(C)CCn1c2c(c(SCC(=O)Nc3ccc4c(c3)OCCO4)nc1=O)CCCC2,-29,-8,-3,i,-5,97*,3.6,11,6,-3.7
O=C1c2ccccc2S(=O)(=O)c2cc(C(=O)N3CCN(c4ccccc4)CC3)ccc21,-0.1,23,-3,i,-8,13,-0.4,-3,-15,4.8
CCOC(=O)CN(C(=O)c1snc(C(N)=O)c1N)C(C(=O)NCCC(C)C)c1ccc(F)cc1 (centres undefined),-16,5,-4,i,7,-11,7.7,-7,6,-2.5
O=C(C1CCN(c2nnc(-n3cccc3)s2)CC1)N1CCOCC1,1.8,6,-4,i,-4,nt,1.3,8,13,0.9
COc1ccc(OCC(O)Cn2c(N)nc3c2c(=O)[nH]c(=O)n3C)cc1 (centres undefined),-2.3,5,-7,i,-14,nt,-4.9,8,4,1.3
COc1cc(C[C@@H](C)[C@@H](C)Cc2ccc(O)c(OC)c2)ccc1O,6.6,nt,-15,i,nt,50,nt,-53,-78,-23

# Source: PubChem (Broad Institute)

# Some of the compounds tested, so the mix of outcomes need not match the whole.
